# Screening results: PubChem BioAssay, Johns Hopkins Ion Channel Center
# Kir21 inh: blocks the mouse Kir2.1 inward-rectifier potassium channel; P35561; HEK293-Kir2.1, FluxOR thallium flux fluorescence; stronger effect = lower value; B-score at 10 µM; hit rate 0.85% among 310,000; AID 1672;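 active means fluorescence ratio B-score at or below minus 3 SD of library scores, with starting-brightness B-score within 2 SD, cut at about -4.2 in these data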;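 further: channel flux triggered by added potassium and thallium sulfate stimulus; B-score of peak minus minimum fluorescence over baseline after thallium stimulus; more negative B-score means stronger Kir2.1 block with less thallium influx; some compounds called inactive have numbers as strong as hits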
# Target sequence (P35561 whole entry, looked up): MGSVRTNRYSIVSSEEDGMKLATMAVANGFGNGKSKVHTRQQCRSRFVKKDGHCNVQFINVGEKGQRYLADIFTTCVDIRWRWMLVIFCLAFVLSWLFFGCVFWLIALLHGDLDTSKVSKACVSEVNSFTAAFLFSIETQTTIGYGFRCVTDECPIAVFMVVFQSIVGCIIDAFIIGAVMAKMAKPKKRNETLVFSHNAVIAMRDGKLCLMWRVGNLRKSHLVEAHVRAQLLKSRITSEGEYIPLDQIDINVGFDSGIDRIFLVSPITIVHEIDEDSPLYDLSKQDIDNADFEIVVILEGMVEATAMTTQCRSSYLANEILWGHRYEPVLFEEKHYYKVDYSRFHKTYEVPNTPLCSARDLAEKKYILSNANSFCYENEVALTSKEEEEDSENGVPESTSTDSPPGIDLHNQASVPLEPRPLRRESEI
# The depositor's hits bear a star. A portion of the library, and most or all hits are left out here.
# Sample of the layout, four compounds:
SMILES,Kir21 inh
Cc1ccc(Cl)cc1Nc1nc(-c2cccnc2)cs1,0.31
COc1ccc2nc(-c3ccccc3)[nH]c2c1,-0.12
O=C(c1ccc(N2CCCC2)c([N+](=O)[O-])c1)N1CCN(S(=O)(=O)c2ccc(Cl)cc2)CC1,1
COc1ccc(C(=O)CC2OC(=O)c3c2ccc(OC)c3OC)cc1 (stereo not drawn),-0.41

# The listing (from the top)
SMILES,Kir21 inh
Cc1ccc(Cl)cc1Nc1nc(-c2cccnc2)cs1,0.31
COc1ccc2nc(-c3ccccc3)[nH]c2c1,-0.12
O=C(c1ccc(N2CCCC2)c([N+](=O)[O-])c1)N1CCN(S(=O)(=O)c2ccc(Cl)cc2)CC1,1
COc1ccc(C(=O)CC2OC(=O)c3c2ccc(OC)c3OC)cc1 (stereo not drawn),-0.41
O=C(CSc1cc(Cl)ccc1Cl)NCC(=O)Nc1ccc(F)c(F)c1F,-0.32
CC(=O)C1=C(O)C(=O)N(CCc2c[nH]c3ccccc23)C1c1ccc(O)cc1 (stereo not drawn),-0.09
O=C(NCCNc1ccc([N+](=O)[O-])cc1C(F)(F)F)c1ccc(F)cc1,1.4
COc1ccccc1OCCC(=O)OCC(=O)NC(C)c1ccccc1 (stereo not drawn),-2.8
CC(C)CC(NC(=O)COc1ccccc1)C(=O)O (stereo not drawn),0.94
Cc1ccccc1C(=O)N1CCC(C(=O)NC2CCCC2)CC1,0.88
CNC(=S)Nc1ccc([N+](=O)[O-])cc1C,0.83
CCOC(=O)CNC(=O)c1c2c(nc3ccccc13)CCCC2,-0.46
O=C(O)c1cc2c(N3CCC(Cc4ccccc4)CC3)ncnc2s1,0.52
O=C(CCC(=O)N1CCSc2ccccc21)NCCc1ccccc1,1.8
CN(C)S(=O)(=O)c1ccc(Cl)c(NC(=O)CN2CCNC(=O)C2)c1,1.2
Cc1nc(SCC(=O)Nc2c(C)n(C)n(-c3ccccc3)c2=O)[nH]c(=O)c1Cc1ccccc1,-0.03
O=Cc1ccc2ccc3cccnc3c2n1,0.05
COc1ccc(CC(=O)NC(=S)Nc2ccc(S(N)(=O)=O)cc2)cc1,0.62
c1ccc(OCCCn2nnc(-c3ccncc3)n2)cc1,-0.38
O=C(CSc1nc2cc(C(F)(F)F)ccc2n1Cc1ccccc1)NC1CCS(=O)(=O)C1 (stereo not drawn),-0.92

# Another view of part of the listing above.
smiles: O=C(CCC(=O)N1CCSc2ccccc21)NCCc1ccccc1
  Kir21 inh: 1.8

smiles: CN(C)S(=O)(=O)c1ccc(Cl)c(NC(=O)CN2CCNC(=O)C2)c1
  Kir21 inh: 1.2

smiles: Cc1nc(SCC(=O)Nc2c(C)n(C)n(-c3ccccc3)c2=O)[nH]c(=O)c1Cc1ccccc1
  Kir21 inh: -0.03

smiles: O=Cc1ccc2ccc3cccnc3c2n1
  Kir21 inh: 0.05

# Following part:
SMILES,Kir21 inh
O=C(c1ccco1)N1CCN(Cc2cc(=O)c(OCc3ccccc3Cl)co2)CC1,1.6
Cc1cccc(C)c1NC(=O)Nc1ccccc1-n1ccnc1,-4.4
COc1ccc(S(=O)(=O)N2CCCCC2)cc1NC(=O)CCc1nc2ccccc2c(=O)[nH]1,-0.23
c1csc(-c2ccc(N3CCOCC3)nn2)c1,0.53
CC(=O)Nc1ccc(S(=O)(=O)NCC(=O)NNC(=O)COc2ccccc2Cl)cc1,-0.35
OCCC1CN(Cc2cnn(-c3ccc(F)cc3)c2)CCN1Cc1ccsc1 (stereo not drawn),-1.4
CC1=C(C(=O)OC2CCCC2)C(c2coc3ccc(C)cc3c2=O)C2=C(CCCC2=O)N1 (stereo not drawn),1.2
CCOC(=O)N1CCC(NC(=O)C2CCN(c3ccc(N4CCOCC4)nn3)CC2)CC1,1.9
Cc1ccc(CNS(=O)(=O)c2c(C(=O)N3CCCCC3)c(C)n(C)c2C)cc1,1.2
CCOC(=O)c1c(C)[nH]c(-c2csc(C)n2)c1C,-0.03
CCCN(Cc1nnc(-c2ccccc2Cl)o1)C(=O)c1cc2ccccc2o1,0.06
CC(=O)c1cccc(NC(=O)N2C3CCC2CC(O)(c2cccnc2)C3)c1 (stereo not drawn),-0.67
CCOC(=O)c1c(N)sc(C(=O)OCCOC)c1C,0.02
COc1cc(NC(=O)CN2C(=O)NC(c3ccccc3)(c3ccccc3)C2=O)c(C)cc1[N+](=O)[O-],0.7
CCOc1cc(C(=O)Nc2ccc(S(=O)(=O)N3CCOCC3)cc2)cc(OCC)c1OCC,1.8
Cc1sc2nc(CC(N)=O)[nH]c(=O)c2c1-c1ccccc1,1.6
COc1ccc(NC(=O)N(Cc2ccc(C)cc2)Cc2cccnc2)c(OC)c1,-0.91
O=C(Nc1cccc([N+](=O)[O-])c1)N1CCCc2ccccc21,1.7
CC(C)C(=O)Nc1ccc(-c2nc3ncccc3o2)cc1,-0.49
Nc1ncnc2c1ncn2CCc1ccccc1,-1.2
O=[N+]([O-])c1cc(S(=O)(=O)Nc2ccccc2)ccc1-n1nnc2ccccc21,0.52
O=C(CC1SC(=O)N(Cc2cccc3ccccc23)C1=O)Nc1nccs1 (stereo not drawn),0.64
O=[N+]([O-])c1cccc(-c2nn(-c3ccccc3)cc2CO)c1,-0.41
O=C1C(=O)N(Cc2cccnc2)C(c2ccccn2)/C1=C(/O)c1ccc(Br)cc1 (stereo not drawn),0.75
CN1C(=O)N(C)c2ccc(C=O)c3cccc1c23,-1.4
Cc1[nH]cnc1CN1CCc2c(c3ccccc3n2C)C1=O,0.03
C=CCn1c(Cc2cccs2)nnc1SCC(=O)Nc1cccc(OC)c1,-0.74
CCOC(=O)N1CCC(NC(=O)C(C)n2c3ccccc3c3cnn(C)c(=O)c32)CC1 (stereo not drawn),0.22
CCc1ccc(C(=O)Nc2nnn(CC)n2)cc1,0.52
CCN(CC)C(=O)c1cc(S(=O)(=O)N2CCCCC2)c[nH]1,-1.2
NC(=O)c1ccc(N2CCN(c3ccccc3F)CC2)c([N+](=O)[O-])c1,0
Cc1cc(SCC(=O)NC2CCCCC2)nc2ccccc12,-0.25
Cc1[nH]n(-c2ccccc2)c(=O)c1-c1ccccc1,0.75
COc1ccc(-c2noc(CN3CCN(c4ccccc4)CC3)n2)cc1,0.06
C[C@H]1CN=C(Nc2ccccc2)N1CCCC1CCCC1,-0.28
COc1ccc2c(c1)C(=O)N(c1ccc(C)cc1C)C(=O)C2(C)C,0.16
COc1ccc(/C=N/N=C2\SC(CC(=O)O)C(=O)N2c2ccccc2)cc1 (stereo not drawn),-0.5
Cc1cc(NC(=O)c2cc(-c3cccs3)on2)nn1Cc1ccc(Cl)cc1,1.9
COc1ccc(/C=C2\Sc3ccc(C(=O)N4CCOCC4)cc3N(C)C2=O)cc1,2.4
CCCCN(C)Cc1c(C)[nH]c2ccc(Cl)cc2c1=O,-0.73
COc1cccc(-c2cc(C(=O)Nc3cccnc3Cl)no2)c1,-0.54
COC(=O)c1ccccc1S(=O)(=O)NC(=O)c1ccccc1,1.8
Cc1ccc(NC2=C(Cl)C(=O)OC2OC(=O)c2ccco2)cc1C (stereo not drawn),-0.79
CCCCn1c(SCC(=O)NC2CC(C)(C)NC(C)(C)C2)nc2cc(S(N)(=O)=O)ccc21,1.8
c1ccc(C(c2nnnn2Cc2ccco2)N2CCN(C3CCCC3)CC2)cc1 (stereo not drawn),0.49
Cc1cc(C(F)F)nn1CC(=O)NCc1ccco1,1.5
CC[C@@H](C)[C@H](CN[C@H](CNC)[C@@H](C)O)NCCc1ccc(OC)cc1,-0.92
O=C(NCc1ccccn1)c1ccc([N+](=O)[O-])cc1,-1.3
Cc1ccc(C2Oc3ccccc3C3=C2C(c2cccs2)n2ncnc2N3)cc1 (stereo not drawn),0.09
CN(C)N1C(N)=C(C#N)C(c2cccc(Cl)c2)C2=C1CCCC2=O (stereo not drawn),-1.1
# (list continues)
SMILES,Kir21 inh
CCOC(=O)C(C)Oc1nc(Oc2ccccc2)nc(N(C)C)n1 (stereo not drawn),-0.35
CCCCC(CC)CNC(=O)c1ncn[nH]1 (stereo not drawn),-1.4
CCCCn1c(N)c(N(CC(C)C)C(=O)CN(C)S(=O)(=O)c2ccc(F)cc2)c(=O)[nH]c1=O,0.18
O=C(c1cc(COc2cccc(C(F)(F)F)c2)on1)N1CCSCC1,0.37
CC(C(=O)N1CCN(c2ccc([N+](=O)[O-])cc2)CC1)N1C(=O)C2CC=CCC2C1=O (stereo not drawn),-0.13
O=C(CC(Nc1cccc(Cl)c1Cl)C(=O)O)c1ccccc1 (stereo not drawn),1.8
O=[N+]([O-])c1cnccc1Nc1ccc(F)cc1,0.24
Cn1ncc2c(NCc3ccccc3)ncnc21,1.4
COc1ccc(CNC(=O)C2CCN(S(=O)(=O)c3ccc4c(c3)CC(C)N4C(=O)C3CC3)CC2)cc1 (stereo not drawn),0.01
O=c1cc(-c2ccc(Cl)cc2)oc(=O)[nH]1,0.58
COC(=O)c1ccccc1-c1ccc(C(c2c(C)[nH][nH]c2=O)c2c(C)[nH][nH]c2=O)o1,-1.4
Cc1nc2ccccc2[nH]c1=O,1.4
CCOC(=O)CNc1nc(Cl)nc(NC(C)(C)C)n1,-0.28
CCOC(=O)Cc1c(C)nc2c(-c3cccc(Br)c3)c[nH]n2c1=O,2.2
COc1ccc(C2C(C(=O)/C=C/c3ccco3)=C(O)C(=O)N2CCN2CCOCC2)cc1OC (stereo not drawn),0.11
Cc1cc(N2CCCC2=O)ccc1S(=O)(=O)NCCOc1ccccc1,-1.6
CC(Nc1n[nH]c(=O)[nH]c1=O)C(=O)N/N=C/c1ccccc1 (stereo not drawn),-0.86
C/C(=N/NC(=O)c1ccc(Br)o1)c1ccncc1,-0.55
CC(=O)c1sc2nc(CSc3nnnn3-c3ccccc3)[nH]c(=O)c2c1C,-0.45
CN1/C(=C\C(=O)c2cccnc2)C(C)(C)c2ccccc21,-0.92
O=C(O)C1C2CCC(O2)C1C(=O)Nc1ccc(O)cc1 (stereo not drawn),1.1
CC(C)OC(=O)/C(C#N)=C/c1c[nH]c2ccccc12,1
CCOC(=O)CN(Cc1sccc1C)C(=O)Nc1ccc(OC)cc1OC,-0.03
CSc1ccc(Cl)c(C(=O)NCCOc2ccccc2)c1,-1.3
Cc1cccc(OCc2ccc(C(=O)Nc3ccc(F)cc3)cc2)c1,-1.3
Cc1cccc(C2c3[nH]c4ccccc4c3CCN2C(=O)c2cc(-c3cccn3C)n[nH]2)n1 (stereo not drawn),-0.05
O=C(CC1C(=O)NCCN1Cc1cccc(C(F)(F)F)c1)NC1CCCCCC1 (stereo not drawn),-0.96
COc1ccc(C)cc1NC(=O)C1CCCN(S(=O)(=O)c2cccc3nonc23)C1 (stereo not drawn),0.88
CCn1cc([C@@H]2C[C@H]3CN(Cc4cccc(Cl)c4)C(=O)[C@]34CCCN24)c(C)n1,-2.8
CC1=[N+]([O-])C(C)(C)C(C)N(O)C1=O (stereo not drawn),-0.26

# 5 neighbouring records already listed, for reference:
SMILES,Kir21 inh
CC(C)OC(=O)/C(C#N)=C/c1c[nH]c2ccccc12,1
CCOC(=O)CN(Cc1sccc1C)C(=O)Nc1ccc(OC)cc1OC,-0.03
CSc1ccc(Cl)c(C(=O)NCCOc2ccccc2)c1,-1.3
Cc1cccc(OCc2ccc(C(=O)Nc3ccc(F)cc3)cc2)c1,-1.3
Cc1cccc(C2c3[nH]c4ccccc4c3CCN2C(=O)c2cc(-c3cccn3C)n[nH]2)n1 (stereo not drawn),-0.05

# The results go on:
SMILES,Kir21 inh
CCNC(=S)Nc1cccc(F)c1C,0.97
Cc1nc2sc3c(c2c(=O)n1N)CCC3,0.67
Nn1c(COc2ccccc2)nnc1SCc1cc(=O)[nH]c2ccccc12,-1.6
O=C(CCCCn1c(=O)[nH]c2ccsc2c1=O)NCc1ccc2c(c1)OCO2,-2.3
Cc1cc(NC(=O)CSc2nnc(-c3cccnc3)n2C)no1,1.5
O=C(c1cccc(C(F)(F)F)c1)c1c[nH]c(C(=O)NCCCN2CCOCC2)c1,0.58
NC(=NC(=O)c1ccccc1)N1CCN(C(c2ccccc2)c2ccccc2)CC1,0.1
Cn1c(=O)cc(N)n(Cc2ccccc2)c1=O,-0.85
Cc1cc(C)nc(/N=C(\NC(=O)C(C)(C)C)Nc2ccccc2)n1,0.86
CC1=C(C(=O)Nc2ccc(F)c(F)c2)C(c2cccs2)NC(=S)N1 (stereo not drawn),-0.78
COCCN1Cc2cccc(C(=O)Nc3ccc(S(=O)(=O)N4CCCCCC4)cc3)c2C1=O,-0.81
C[C@@H](C(=O)NCc1c(F)cccc1Cl)N1C(=O)N2CCc3c([nH]c4ccccc34)[C@@]2(C)C1=O,-0.46
C/C(=N\NC(=O)CNC(=O)C(c1ccccc1)c1ccccc1)c1ccc(C(C)(C)C)cc1,-0.29
O=C(NC1CCN(Cc2cccc([N+](=O)[O-])c2)CC1)c1ccccc1,-0.52
c1ccc2c(c1)ccc1nnnn12,0.26
O=C(c1ccc(OC2CCN(Cc3ccccc3O)CC2)cc1)N1CCCCC1,-3.3
COc1ccc(OCc2nnc(SCC(=O)Nc3ccccc3F)o2)cc1,1.5
Cc1ccc(-c2nnc(SCC(=O)Nc3nc4c(s3)CCCC4)n2C)cc1,-1
Cc1ccccc1NC(=S)NCc1ccc2c(c1)OCO2,-0.12
O=C(NCCCN1CCOCC1)c1cc(-c2ccc3c(c2)OCO3)nc2ccccc12,0.61
COc1ccccc1NS(=O)(=O)c1cc(C(=O)NCc2ccco2)ccc1C,-0.51
COc1ccc(CC(=O)OCC(=O)NC(=O)NC(C)C)cc1,0.14
O=C(Nc1ccccc1)C1=C[C@@H](c2coc3ccccc3c2=O)C[C@@H](OCCCCO)O1,0.16
O=C1NCC(COc2cccc3ccccc23)O1 (stereo not drawn),0.06
Cc1ccc(NC(=O)CSc2cn[nH]n2)cc1,0.64
CCCN1CCN(S(=O)(=O)c2ccc3c(c2)OCCO3)CC1,-0.01
O=[N+]([O-])c1ccccc1/C=C/C=N/n1c(-c2ccccc2)n[nH]c1=S,1.9
CSC1=NCCN1S(=O)(=O)c1ccc2ccccc2c1,-0.38
O=C1C(=O)N(CCS(=O)(=O)c2ccccc2)c2ccc(Cl)cc21,0.72
